NPYLR7 ag – mosquito NPYLR7 agonism; AID 1259423; HEK293T NPYLR7/Galpha15, GCaMP6s calcium fluorescence; 0.15% of 270,000 active; activation, % at 10 µM; in the data active = activation above about 40%;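 also: 0% = vehicle and 100% = reference agonist at the receptor; some compounds past the cut are filed as inactive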
NPYLR7 ag max-min – second read-out of NPYLR7 ag, no call of its own (marks repeat the call); activation, %; measured here: Max-Min RFU normalised activation; some inactives read as strong as hits;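 span of the calcium signal over five minutes; 0% = vehicle and 100% = native peptide agonist; compound fluorescence can raise it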
* hit, by the source's call; & = joins results of further samples. Some of the compounds tested; rates above refer to the full screens.

SMILES | NPYLR7 ag | NPYLR7 ag max-min
O=C(NCc1cccc(Cl)c1)c1cccc2[nH]c(-c3ccc(O)cc3)nc12 | 1 | -1
CCCC(C(=O)NNC(=O)c1cccc(Cl)c1)c1ccccc1 (centres undefined) | -4 | -6
Cc1ccc(NC(=O)Nc2ccc(Nc3ccc(-n4cccn4)nn3)cc2)cc1 | -6 | -8
CCOC(=O)c1cc2cc(NC(=O)N3CCN(C(C)=O)CC3)ccc2s1 | 14 | 11
O=C1OCC(c2ccc(F)cc2)=C1c1ccc(Cl)c(Cl)c1 | -5 | -10
CCOC(=O)C1(Cc2ccc(OC)cc2)CCN(C(=O)c2csc3nc(C)cn23)CC1 | -10 | -15
Cc1ccccc1C(=O)NC(C(=O)N1CCCCC1)C1CCN(C(=O)CCc2ccccc2)CC1 (centres undefined) | -3 | -2
CC1CCc2c(sc(NC(=O)Cc3ccccc3)c2C(=O)Nc2ccc(Cl)cc2)C1 (centres undefined) | 1 | 5
COC(=O)C1=C(O)/C(=C\c2ccc(O)cc2)SC1=Nc1ccc(C)cc1 | -3 | 6
CCC(C)c1ccc(-c2csc(NC(=O)Cn3cnnn3)n2)cc1 (centres undefined) | 12 | 4
CCN(CC)S(=O)(=O)c1ccc(Cl)c(C(=O)NC(C)C(=O)OC)c1 (centres undefined) | 3 | 7
COc1ccc(S(=O)(=O)Nc2cccc(-c3nnc4n3CCC4)c2)cc1 | 5 | 3
CCn1c(CN2CCCCC2C)nc2c1c(=O)n(C)c(=O)n2C (centres undefined) | 5 | 1
CCCc1nc(C)cc(-c2cccc(O)c2)n1 | 1 | -1
Cc1cc(O)c(CN2CCC(C(=O)NC3CC3)CC2)cc1C(C)C | -1 | -4
COCCn1ncc2ccc(NC(=O)NC3COc4ccccc43)cc21 (centres undefined) | 9 | 6
O=C(NCc1ccncc1)c1cc(-c2ccccc2F)nc2cc(-c3ccccc3)nn12 | -3 | 0
Cn1c(N2CCCCS2(=O)=O)nc(C(=O)NCc2ccc(F)cc2)c(O)c1=O | -3 | -6
CCOC(=O)c1cn(Cc2ccc(F)cc2)nc1S(=O)(=O)N1CCc2ccccc2C1 | -10 | -12
COc1cc(OC)cc(C(=O)N2CCN(C(C(=O)NCCCN(C)C)C3CCCC3)CC2)c1 (centres undefined) | -8 | 2
CN(C)CCNc1cc(-c2n[nH]c(C(F)(F)F)n2)c2cc[nH]c2n1 | 8 | 8
CC(C)C(=O)N1CCCC1(C)C(=O)Nc1ccc(-n2cncn2)cc1 (centres undefined) | 5 | 2
COCCN(CC(=O)Nc1cc(C(C)(C)C)nn1-c1ccc(Cl)c(Cl)c1)C(=O)Nc1cc(C(F)(F)F)cc(C(F)(F)F)c1 | 0 | 1
COc1cccc(CNC(=O)CCC2CCCN(C(=O)c3ccc(OC)c(F)c3)C2)c1 (centres undefined) | 5 | 7
Cc1ccccc1C(=O)NN=C(C1CC1)C1CC1 | 5 | 4

3 of these compounds in a different format:
CCN(CC)S(=O)(=O)c1ccc(Cl)c(C(=O)NC(C)C(=O)OC)c1 (centres undefined)
  NPYLR7 ag: 3
  NPYLR7 ag max-min: 7

COc1ccc(S(=O)(=O)Nc2cccc(-c3nnc4n3CCC4)c2)cc1
  NPYLR7 ag: 5
  NPYLR7 ag max-min: 3

CCn1c(CN2CCCCC2C)nc2c1c(=O)n(C)c(=O)n2C (centres undefined)
  NPYLR7 ag: 5
  NPYLR7 ag max-min: 1

Carrying on.
SMILES | NPYLR7 ag | NPYLR7 ag max-min
CC(C)(C)c1c(Cl)c(O)c(-c2ccccc2)c(=O)n1-c1ccccc1 | 7 | 6
CC(C)CNC(=O)C1(C)CCCCCN1C(=O)c1cc2ccccc2s1 (centres undefined) | -6 | -4
COc1cccc(CC(=O)N(CC(=O)O)[C@@H]2C[C@@H]3CO[C@H](C(C)C)C[C@@H]3C2)c1 | -7 | -2
Cc1c(C)c(C)c(C(=O)O)c(C)c1C | 4 | 3
Cc1ccn2c(NC(=O)C(C)(C)C)c(-c3cccc(F)c3)nc2c1 | -4 | 4
CCOC(=O)c1cnc(-c2cccc(C(F)(F)F)c2)nc1N1CCCCC1CC (centres undefined) | 4 | 2
Cc1nc(N2CCN(C)CC2)ncc1-c1cc(=O)[nH]c(N2CCc3ccccc3C2)n1 | 2 | 2
CCC1CN(C(=O)c2cc(F)cc3[nH]cnc23)CC1N1CCOCC1 (centres undefined) | 4 | 2
CCOC(=O)c1cc(C(C)c2ccccc2)sc1NC(=O)c1c(-c2ccccc2)noc1C (centres undefined) | 6 | 1
CC(C)(C)n1ncc2c1CCCC2NC(=S)NC1CC2CCC1C2 (centres undefined) | 7 | 8
COC(=NC(C)c1ccccc1)NC(=O)c1cccc(C(F)(F)F)c1 (centres undefined) | -6 | -12
CCOC(=O)C1CCCN(C(=O)Cc2csc(NC(=O)CN(CCOC)C(=O)c3ccco3)n2)C1 (centres undefined) | 12 | 14
O=C(CSc1nnnn1Cc1ccccc1)Cn1cnc2ccccc2c1=O | 4 | 2
CCOC(=O)N1CCC(NC2CC(=O)N(CCc3ccc(OC)cc3)C2)CC1 (centres undefined) | 6 | 6
Cc1ccc(C(NC(=O)CCc2ccsc2)C2CC2)cc1 (centres undefined) | 5 | 2
COc1cccc(CN2CCC(C(=O)NC(c3ccc(F)cc3)c3nc(OC)cc(OC)n3)CC2)c1 (centres undefined) | 2 | 3
O=C(NCc1ccco1)c1nn(-c2ccc(F)cc2)c(=O)n(Cc2ccccc2Cl)c1=O | -3 | 4
CCCOC(=NC(C)c1ccccc1)NC(=O)c1ccccc1F (centres undefined) | -6 | -17
O=c1[nH]c2ccc(Cl)cc2c(-c2ccccc2)c1Sc1nnc(C2CC2)o1 | -1 | -8
CC1(C)O[C@@H]2CCC3C(CC[C@H]2S1)C3(Br)Br (some centres undefined) | 1 | -4
Cn1cc([N+](=O)[O-])c(C(=O)Nc2cccc(Br)c2)n1 | 1 | -2
C1Cc2[nH]nc(CNC3CSCCSC3)c2C1 | 11 | 7
O=C(CCC(=O)Nc1ccc(C(=O)O)cc1)N/N=C\c1coc2ccc(F)cc2c1=O | 1 | -6
COc1cccc(-c2nn(Cc3ccccc3)c(=O)c3nc(C)sc23)c1 | 3 | 1
CCCCCCn1c(-c2ccc(OC)cc2)csc1=Nc1ccccc1SC | 10 | 7

Further structures:
SMILES | NPYLR7 ag | NPYLR7 ag max-min
CCCCNC(=O)CSc1nnc(NCc2ccc(OC)cc2)s1 | 3 | 3
CCOC(=O)N1CCN(C2CCc3c(c(C(=O)N4CCCCCC4)nn3C)C2)CC1 (centres undefined) | 6 | -2
CSc1cccc(NC(=O)c2ccc(-n3nc(-c4cccc(Cl)c4)cc3N)cc2)c1 | -8 | -11
COc1cccc(Oc2cc(N3CCN(C(=O)Cc4ccccc4)CC3)ncn2)c1 | 16 | 14
COC(=O)c1sccc1NC(=O)CC1(CC(=O)O)CCCC1 | -2 | -4
COc1cccc2cc(-c3nc4ccccc4[nH]3)c(=Nc3ccccc3C)oc12 | 1 | -1
O=C(NCCS(=O)(=O)c1ccc(Cl)cc1)NCc1ccccn1 | 13 | 9
C=CCN1C[C@@H]2C[C@@H](C(=O)NC)N(C(=O)c3ncoc3-c3ccccc3)c3cccc(c32)S1(=O)=O | 0 | 3
CCOc1ncccc1CNc1cc(N2CCOCC2)nc(N)n1 | 12 | -1
COc1ccccc1OCC(=O)NCC1CCCN(C(=O)C2=CCCC2)C1 (centres undefined) | 9 | 2
Cc1csc(=O)n1CC(=O)OCc1cc(=O)n2c(C)csc2n1 | 3 | 4
Cc1nn(-c2nc(C)c(C)c(=O)[nH]2)c(C)c1CCC(=O)NC1CCCC1 | 6 | 0
Cc1ccc2nc(N3CCOCC3)c(C=C3SC(=S)N(Cc4ccco4)C3=O)c(=O)n2c1 | -4 | -4
CCOc1ccccc1CNC(=O)c1c(C)noc1-c1cccs1 | 6 | 12
CC(C)NC(=O)CC1(C)N=C(c2ccc(C(C)C)cc2)N(C)O1 (centres undefined) | 7 | 5
COc1ccc(-c2nn(CN3CCN(c4ccc(O)cc4)CC3)c(=S)o2)cc1OC | -5 | -6
CN1C(=O)C(CC(=O)NCCc2ccccn2)(Cc2ccccc2)c2ccccc21 (centres undefined) | 3 | -10
COc1ccc2nc(-c3ccc(Cl)c(NC(=O)NCc4ccccc4)c3)cn2n1 | -2 | -2
O=S(=O)(Nc1cc(Cl)ccc1N1CCCCC1)c1cccs1 | -16 | -20
CC(c1cccc(F)c1)N1CCN(C(=O)C(=O)NC2CC2)CC1 (centres undefined) | 9 | 4
CC(NC(=O)C1COc2ccccc2C1)c1nnc2n1CCCCC2 (centres undefined) | 2 | 3
Cc1c(C)n2c3c(=O)n(CCCO)c(=O)n(C)c3nc2n1-c1ccc(Oc2ccccc2)cc1 | 9 | 4
CCN1CCN(C(=O)c2cccc(Nc3c(Oc4cccc(Cl)c4)cnn(C)c3=O)c2)CC1 | 18 | 22
CCc1ccc(NC(=O)C(C)N(CCOC)CC(=O)N(C)C)cc1 (centres undefined) | 8 | 4
CCOc1ccccc1Oc1cnc(N)nc1-c1ccc(OCc2ccccc2)cc1O | 0 | -3

(next part)
SMILES | NPYLR7 ag | NPYLR7 ag max-min
CC(C)N1CCC(NC(=O)c2ccc(-c3ccccc3)cc2)CC1 | 22 | 18
Nc1ccc(CCNC(=O)c2ccc(-c3cc(-c4ccc(Cl)cc4Cl)[nH]n3)cc2)cc1 | 25 | 12
CCSc1nc(CC(=O)N2[C@@H]3CC[C@H]2CC(O)C3)cs1 (some centres undefined) | 7 | 6
CCCCc1ccc(C(=O)NCCN2CCN(c3nc(Cc4cccc(OC)c4)ns3)CC2)cc1 | -6 | -5
Cc1nnc(CNC(=O)CCc2cccc(Cl)c2)n1C | 1 | -1
COc1cc(Cl)c(NCc2nc3ccccc3o2)cc1OC | 1 | 0
CCc1nc2ccc(C(=O)N3CCCCC3)cn2c1N(CC)CC(=O)N(C)C | 16 | 16
CC(CCn1cccn1)Nc1ccc(-c2nccn2C)nn1 (centres undefined) | 6 | 1
CC(C)n1cc(S(=O)(=O)N2CCC(N3CC=CC3)CC2)cn1 | 2 | -3
C=CCn1c(SCCC#N)nc2sc3c(c2c1=O)CCCC3 | -1 | -4
CCN=C(C)Cc1nsc(Nc2ccc(Cl)cc2)n1 | -1 | -2
CN(C)NC(=O)CC12CC3CC(C1)CC(CC(=O)NN(C)C)(C3)C2 | -1 | -3
Cc1ccc(CN2CCN(c3ncccc3C(N)=O)CC2)c2cccnc12 | 4 | 3
Cc1nnc(CN2CCOC(c3ccc(Cl)c(Cl)c3)C2)o1 (centres undefined) | -6 | -7
Cc1ccn2c(NC(C)(C)CC(C)(C)C)c(-c3ccc(O)cc3)nc2c1 | -17&6 | -16&7
C=CCSc1ncnc2c1sc1nc3c(cc12)COC(C)(C)C3 | 1 | -3
Cc1ccccc1C1(O)CCN(Cc2ccc(Sc3nncn3C)o2)C1 (centres undefined) | 15 | 13
Cc1cc(=O)[nH]c(-n2nc(C)cc2NC(=O)c2cccc(C(F)(F)F)c2)n1 | -3 | -1
CCOn1c(=O)c(-c2ccco2)[n+]([O-])c2ccccc21 | 17 | 7
C/C=C/C(=O)NC1CC2CCC(C1)N2CCc1ccccc1 (centres undefined) | -1 | -8
COc1cccc(-c2cc(C(=O)N3CC4(C)CC3CC(C)(C)C4)n(-c3cccc([N+](=O)[O-])c3)n2)c1 (centres undefined) | -13 | -6
Cc1cc2cc(CNC(=O)CCCc3ccccc3)ccc2n1C | 16 | 19
Cc1ccc(N2CCOC2=O)cc1NC(=O)C1CC2C=CC1C2 (centres undefined) | 1 | 38
Cc1nc2nc3ccn(Cc4cccnc4)c(=O)c3c(-c3cccc(Cl)c3)n2n1 | 0 | -2
O=C(c1cn(CCCc2ccccc2)nn1)N1CCC(c2nc3ccccc3o2)CC1 | 14 | 5

Full records, quoted from the list:
COc1cc(Cl)c(NCc2nc3ccccc3o2)cc1OC is listed as NPYLR7 ag = 1; NPYLR7 ag max-min = 0
CCc1nc2ccc(C(=O)N3CCCCC3)cn2c1N(CC)CC(=O)N(C)C is listed as NPYLR7 ag = 16; NPYLR7 ag max-min = 16
Cc1nc2nc3ccn(Cc4cccnc4)c(=O)c3c(-c3cccc(Cl)c3)n2n1 is listed as NPYLR7 ag = 0; NPYLR7 ag max-min = -2

Filtered by structure: the compounds so far with a nitro group on carbon.
SMILES | NPYLR7 ag | NPYLR7 ag max-min
Cn1cc([N+](=O)[O-])c(C(=O)Nc2cccc(Br)c2)n1 | 1 | -2
COc1cccc(-c2cc(C(=O)N3CC4(C)CC3CC(C)(C)C4)n(-c3cccc([N+](=O)[O-])c3)n2)c1 (centres undefined) | -13 | -6

Next compounds follow:
SMILES | NPYLR7 ag | NPYLR7 ag max-min
CC(=O)N1CCN(C)CC1 | -13 | -14
COc1ncccc1CN1CCOc2c(O)cc(-c3ccc(C)s3)cc2C1 | -7 | -13
Cc1ccc(F)c(S(=O)(=O)NC(=O)C2(C)CCN2C(=O)c2ccco2)c1 (centres undefined) | -4 | -8
C/C=C\COC1CCCN(C(=O)c2cccc(Br)c2)C1 (centres undefined) | -2 | 6
CC(=O)Nc1ccc(CN2CCCC(N3CCN(Cc4ccc5c(c4)OCO5)CC3)C2)cc1 (centres undefined) | 10 | 3
C=CCOC(CN1CCN(C(=O)c2cccc(OC)c2)CC1)c1cccc(N2CCCC2)c1 (centres undefined) | -4 | 6
Cc1ccc(S(=O)(=O)NCC2CCN(c3ccccc3)C2)c(C)c1 (centres undefined) | 0 | -8
COc1nc(-c2cccc(F)c2)n(-c2cccc(NC(=O)C3CCC3)c2)n1 | -15 | -10
COc1ccc(N2C(=O)C(Cl)=C(Nc3ccc(C(C)C)cc3)C2=O)cc1 | 29 | 19

Compounds listed so far containing a CF3 group (five):
SMILES | NPYLR7 ag | NPYLR7 ag max-min
CN(C)CCNc1cc(-c2n[nH]c(C(F)(F)F)n2)c2cc[nH]c2n1 | 8 | 8
COCCN(CC(=O)Nc1cc(C(C)(C)C)nn1-c1ccc(Cl)c(Cl)c1)C(=O)Nc1cc(C(F)(F)F)cc(C(F)(F)F)c1 | 0 | 1
CCOC(=O)c1cnc(-c2cccc(C(F)(F)F)c2)nc1N1CCCCC1CC (centres undefined) | 4 | 2
COC(=NC(C)c1ccccc1)NC(=O)c1cccc(C(F)(F)F)c1 (centres undefined) | -6 | -12
Cc1cc(=O)[nH]c(-n2nc(C)cc2NC(=O)c2cccc(C(F)(F)F)c2)n1 | -3 | -1

Source: PubChem (Fisher Drug Discovery Resource Center)
